# Bead autofluor: counter-screen for toxin protease inhibitors: compound fluorescence; compound autofluorescence counterscreen, microsphere flow cytometry; hits give high values; fluorescence intensity (no concentration beside the values); 360,000 tested, 3.1% active;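 active = at least 3 SD above the mean of all compounds, about 16000 in these data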;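 also: 100 nL of 1 mM stock went into each well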
# PrP 5UTR inh: suppresses PrP 5' UTR mRNA reporter expression; cell-based PrP 5' UTR mRNA reporter, plate reader; inhibition, % (concentration not given with the values); 340,000 tested, 0.35% active; AID 488862;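 active = every replicate at 50% or more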;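 also: 0 = median of the neutral control wells; tested in H4 reporter cells; numbers are from one replicate; inactives centre near -14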
# Starred values were filed as active, the others as inactive. Only part of the results is shown (hit frequency here may not be typical).
SMILES,Bead autofluor,PrP 5UTR inh
CCN1C(=O)CC(C(C)C)N(C2CCCC2)c2nc(Nc3ccc(C(=O)NC4CCN(C)CC4)cc3OC)ncc21 (stereo unspecified),3299,-5
CCN(CC)CCCOc1nc(C)nc2c1oc1ccccc12,23099*,-42
COC1C=COC2(C)Oc3c(C)c(O)c4c(O)c(c(CN5CCN(C)CC5)c(O)c4c3C2=O)NC(=O)C(C)=CC=CC(C)C(O)C(C)C(O)C(C)C(OC(C)=O)C1C (stereo unspecified),4004,-29
CC(=Nc1ccccc1)C1=C(O)C(Cc2ccc(O)cc2)NC1=O (stereo unspecified),3076,54*
COc1ccc(-c2cnnc(N/N=C/c3ccc(-c4ccc([N+](=O)[O-])cc4)o3)n2)cc1,4067,28
COC(=O)C1C2CC3c4[nH]c5cc(OC)ccc5c4CCN3CC2CC(O)C1OC (stereo unspecified),5345,-23
Cc1ccccc1-c1cc(C(=O)N/N=C/c2cccnc2)c2ccccc2n1,6434,-22
O=C(Nc1ccc(C(=O)N2CCCC2)cc1)c1ccccc1,3516,-42
COC(=O)C1=C(c2ccc(OC(F)(F)F)cc2)C[C@@H]2CC[C@H]1N2C(=O)N1CCC(C)CC1,4052,-17
O=[N+]([O-])c1ccc(Cl)cc1P(=O)(O)c1cc(Cl)ccc1[N+](=O)[O-],3449,-33
NC(CSC1(c2ccc(Cl)cc2)c2ccccc2-c2ccccc21)C(=O)O (stereo unspecified),3762,47
COc1ccc(S(=O)(=O)Nc2ccc3c(c2)C(=O)N([C@@H](C)CO)C[C@H](C)[C@H](CN(C)CC2CC2)O3)cc1,4326,-2
COc1cc2cc(C(=O)N3CC(COS(C)(=O)=O)c4ccc(O)cc43)[nH]c2c(OC)c1OC (stereo unspecified),3981,97*
CCOP(=S)(OCC)Oc1cc(C)nc(C(C)C)n1,5225,-19
O=C(C[C@H]1C/C=C\C[C@@H](Cc2ccc(F)cc2)C(=O)O[C@@H](c2ccccc2)CNC1=O)NCCO,3973,-20
C[C@H](CO)N1C[C@H](C)[C@@H](CN(C)S(=O)(=O)c2cccs2)Oc2c(NC(=O)Nc3ccccc3)cccc2C1=O,4322,-9
CC(=O)C1=C(C)N=c2s/c(=C/c3ccc4c(c3)OCO4)c(=O)n2C1c1ccc(N(C)C)cc1 (stereo unspecified),5012,-12
CC(C)Cc1ccc(C(C)/C=C2/CCC(CN3CCCCC3)C2=O)cc1 (stereo unspecified),4274,-17
C[C@]12c3[nH]c4cc(-c5ccco5)ccc4c3CCN1C(=O)[C@@H](CC(=O)NCCCn1ccnc1)C[C@@H]2C(=O)N1CCOCC1,3936,-20
CCOC(=O)C1(Cc2ccccc2)CCCCCC1=O (stereo unspecified),4563,55*
CC1(C)O[C@@H](CC(=O)O)[C@]23CO[C@H](C(=O)[C@]4(C)C2CC[C@@]2(C)[C@H](c5ccoc5)OC(=O)C5O[C@]524)[C@@H]13 (stereo partly specified),3796,-13
CC1([N+](=O)[O-])COP(=O)(Nc2cccc(F)c2)OC1 (stereo unspecified),2961,-16
c1ccc2oc(-c3ccc(Nc4nc(N5CCOCC5)nc(N5CCOCC5)n4)cc3)nc2c1,3503,4
O=C(O)C1=C[C@@H](O)[C@@H](O)[C@H](O)C1,5256,-26

# Part of the list above in another layout.
Compound	Bead autofluor	PrP 5UTR inh
NC(CSC1(c2ccc(Cl)cc2)c2ccccc2-c2ccccc21)C(=O)O (stereo unspecified)	3762	47
COc1ccc(S(=O)(=O)Nc2ccc3c(c2)C(=O)N([C@@H](C)CO)C[C@H](C)[C@H](CN(C)CC2CC2)O3)cc1	4326	-2
COc1cc2cc(C(=O)N3CC(COS(C)(=O)=O)c4ccc(O)cc43)[nH]c2c(OC)c1OC (stereo unspecified)	3981	97*
CCOP(=S)(OCC)Oc1cc(C)nc(C(C)C)n1	5225	-19
O=C(C[C@H]1C/C=C\C[C@@H](Cc2ccc(F)cc2)C(=O)O[C@@H](c2ccccc2)CNC1=O)NCCO	3973	-20
C[C@H](CO)N1C[C@H](C)[C@@H](CN(C)S(=O)(=O)c2cccs2)Oc2c(NC(=O)Nc3ccccc3)cccc2C1=O	4322	-9
CC(=O)C1=C(C)N=c2s/c(=C/c3ccc4c(c3)OCO4)c(=O)n2C1c1ccc(N(C)C)cc1 (stereo unspecified)	5012	-12
CC(C)Cc1ccc(C(C)/C=C2/CCC(CN3CCCCC3)C2=O)cc1 (stereo unspecified)	4274	-17
C[C@]12c3[nH]c4cc(-c5ccco5)ccc4c3CCN1C(=O)[C@@H](CC(=O)NCCCn1ccnc1)C[C@@H]2C(=O)N1CCOCC1	3936	-20
CCOC(=O)C1(Cc2ccccc2)CCCCCC1=O (stereo unspecified)	4563	55*
CC1(C)O[C@@H](CC(=O)O)[C@]23CO[C@H](C(=O)[C@]4(C)C2CC[C@@]2(C)[C@H](c5ccoc5)OC(=O)C5O[C@]524)[C@@H]13 (stereo partly specified)	3796	-13
CC1([N+](=O)[O-])COP(=O)(Nc2cccc(F)c2)OC1 (stereo unspecified)	2961	-16
c1ccc2oc(-c3ccc(Nc4nc(N5CCOCC5)nc(N5CCOCC5)n4)cc3)nc2c1	3503	4
O=C(O)C1=C[C@@H](O)[C@@H](O)[C@H](O)C1	5256	-26

# (continued)
SMILES,Bead autofluor,PrP 5UTR inh
C[C@H](CO)N1C[C@H](C)[C@@H](CN(C)S(=O)(=O)c2cccs2)Oc2ccc(NC(=O)NC3CCCCC3)cc2C1=O,4154,-9
CC(C)(C)OC(=O)C[C@@H]1C/C=C\C[C@H](CC(=O)NCCO)C(=O)N2CCC[C@H]2COC1=O,2889,-15
N#CC1=CC2CN(Cc3ccccc3)C1C1C(=O)N(c3ccccc3)C(=O)C21 (stereo unspecified),4324,-11
C#CCOCCOCCOCCNc1nc(N2CCN(C(=O)C([C@@H](C)O)n3cc([C@@H](N)CCCCN)nn3)CC2)nc(N2CCN(C(=O)[C@H](CCCCN)n3cc(CN)nn3)CC2)n1 (stereo partly specified),3263,-3
C=CC(=O)Nc1ccc(Nc2nc(NC3CCC(N(C)C)CC3)nc3c2ncn3C(C)C)cc1 (stereo unspecified),4963,20
COc1ccc([C@H]2Cc3cc(O)cc(O)c3C(=O)O2)cc1O,3090,-53
O=c1cc(-c2ccc(O)cc2)oc2c(C3O[C@H](CO)[C@@H](O)[C@H](O)[C@H]3O)c(O)cc(O)c12 (stereo partly specified),6319,-5
CCn1c(N)cc(=O)[nH]c1=S,4179,-12
COc1cc(/C=C/C(=O)OCC(=O)c2ccc3c(c2)NC(=O)CO3)ccc1OC(F)F,3688,-15
CCN1CCN(c2nc(C)nc3c2sc(=S)n3C)CC1,6226,7
C[C@H](O)[C@@H]1C(=O)N2CCc3ccc(N4CCOCC4)cc3[C@@H]2C[C@@H]1N(C)C(=O)C(C)(C)C,2993,-10
O=C(Sc1n[nH]c(=O)[nH]c1=O)c1ccccc1,4800,-9
O=c1[nH]cnc(CN2CCCCC2)c1O,4404,-3
Cc1ccc(N2C(=O)SC(N(CC(=O)O)c3ccc(C)cc3)C2=O)cc1 (stereo unspecified),4109,-10
CC1(C)C(/C=C/C=C/C=C/C=C2\N(CCCCS(=O)(=O)O)c3ccc4ccccc4c3C2(C)C)=[N+](CCCCS(=O)(=O)[O-])c2ccc3ccccc3c21,3498,-7
Oc1ccccc1C=NN=CC=Cc1ccccc1,3855,-85
CC(C)(C)OC(=O)N1CCC(C(=O)Nc2cccc(C(=O)N3CCCC3)c2)CC1,3502,-11
Cc1ccc(C2NC(=O)c3ccccc3N2)c(C)c1 (stereo unspecified),3842,-37
C[C@H](CO)N1C[C@H](C)[C@@H](CN(C)S(=O)(=O)c2ccc(F)cc2)Oc2ccc(NC(=O)Nc3ccc(C(F)(F)F)cc3)cc2C1=O,3958,-1
COC(=O)c1c(-c2ccccc2OC)sc2ccccc12,4119,-17
CCOc1ccccc1C=NN=Cc1ccccc1O,2836,-69
COc1ccc(NC(=O)Nc2ccc3c(c2)C(=O)N([C@@H](C)CO)C[C@@H](C)[C@@H](CN(C)S(=O)(=O)c2cccs2)O3)cc1,3883,2
COc1ccc(SCCN2CC[C@@H](C)CCC2=O)cc1,3606,-16
CC(=O)c1c(O)cc(O)cc1O,3941,-27

# Exported with two lines to a compound: entries from further up.
# Order of values – Bead autofluor | PrP 5UTR inh
- Cc1ccc(N2C(=O)SC(N(CC(=O)O)c3ccc(C)cc3)C2=O)cc1 (stereo unspecified)
→ 4109 | -10
- Oc1ccccc1C=NN=CC=Cc1ccccc1
→ 3855 | -85

# Going on with the list:
SMILES,Bead autofluor,PrP 5UTR inh
C#CCOCCOCCOCCNc1nc(N2CCN(C(=O)CCCCCCCCCCNC(=O)[C@@H](CCC(=O)O)n3cc(CCCCCN)nn3)CC2)nc(N2CCN(C(=O)CCCCCCCCCCNC(=O)[C@H](CO)n3cc(CCCCCN)nn3)CC2)n1,4191,-26
CC1C=CC=CC=CC=CC=CC=CC=CC(OC2OC(C)C(O)C(N)C2O)CC2OC(O)(CC(O)CC(O)C(O)CCC(O)CC(O)CC(=O)OC(C)C(C)C1O)CC(O)C2C(=O)O (stereo unspecified),2837,-1
COc1cc(/C=C/C(=O)N2CCC=CC2=O)cc(OC)c1OC,4339,-19
COC(=O)[C@]1(C)N[C@H](c2ccc(-c3cccc(Cl)c3)cc2)[C@@H]2C(=O)N(C)C(=O)[C@@H]21,4297,-24
O=S(=O)(NC(CO)Cc1ccccc1)c1cc(Cl)ccc1F (stereo unspecified),3696,-8
CC(C)(O)CN(C(=O)c1ccc([N+](=O)[O-])cc1)C1CCCC1,3393,-7
COc1cc(OC)c2c(-c3cccc(-c4ccc(OC)c(OC)c4)c3)cc(=O)oc2c1,2956,49
O=[N+]([O-])c1cccc(COc2cccc(CN3CCCC3)c2)c1,3905,-26
Fc1cccc(F)c1[B-](F)(F)F,3669,-18
CCOc1ccc(C=NNC(=O)c2cccc3ccccc23)cc1OCC,3876,-18
CCOC(=O)C1CCCCN1C(=O)/C(=C/c1ccc(OC)cc1)c1ccc(OC)c(OC)c1 (stereo unspecified),3503,-12
O=[N+]([O-])c1cc(/C=N/NC(=S)Nc2ccccc2Cl)ccc1Cl,4822,-10
O=C(O)c1cccc(-c2ccc(/C=N/NC(=O)C3COc4ccccc4O3)o2)c1 (stereo unspecified),2187,-28
COc1ccc2ccccc2c1/C=N\NC(=O)c1ccc(C)s1,5558,9
C#CCOCCOCCOCCNc1nc(N2CCN(C(=O)CCCCCCCCCCNC(=O)[C@@H](CCC(=O)O)n3cc(CCCCCN)nn3)CC2)nc(N2CCN(C(=O)CCCCCCCCCCNC(=O)[C@H](CO)n3cc(CCCSC)nn3)CC2)n1,3066,-28
Nc1ccn(C2OC(COC(=O)C34CC5CC(CC(C5)C3)C4)C(O)C2O)c(=O)n1 (stereo unspecified),2907,-9
O=C1NCCOC(=O)[C@H](Cc2ccc(F)cc2)C/C=C\C[C@@H]1CC(=O)N(CCO)Cc1ccccc1,3661,1
COc1ccc([C@@H](NC(=O)OC(C)(C)C)C(=O)OC(C)(C)C)cc1,3791,-30
C/C(=N\NC(=O)c1ccccc1O)c1ccc(NC(=O)c2ccccc2)cc1,5295,-43
CCc1nc(SCC(=O)Nc2nnc(C(C)C)s2)n[nH]1,3703,-39
CCOC(=O)C1=C(C)c2ccccc2OC1(CC)C(=O)OCC (stereo unspecified),3625,-23
C[C@@H](C(=O)Nc1ccc2ccccc2c1)[C@@H]1C[C@@]1(C)[C@@H](NC(=O)c1cnccn1)c1ccccc1,4331,-7
NC(=S)NN=C1CCCC(C(F)(F)F)C1 (stereo unspecified),3543,-19
COc1cc2c(cc1OC)C(Cc1ccccc1[N+](=O)[O-])=NCC2,3860,-12
O=C(O)Cc1ccc(-c2ccccc2)cc1,5387,2
c1ccc2cc(C3CCCCC3)ncc2c1,4743,-51
COc1cc([N+](=O)[O-])c2nc(C)ccc2c1[N+](=O)[O-],3669,-41
O=C(N[C@H]1C/C=C\C[C@@H](CC(=O)N(CCO)Cc2ccccc2)C(=O)NC[C@H](c2ccccc2)OC1=O)OCC1c2ccccc2-c2ccccc21,3078,-13
C[C@@]12C(=O)Nc3ccc(Cl)cc3C(=O)N1[C@H]1c3cc(Cl)ccc3OC[C@@H]1[C@@H]2c1ccccc1,3710,-5
CCc1noc(C)c1C(=O)OC(C)C(=O)Nc1ccc(Cl)cn1 (stereo unspecified),3555,-16
N#CC1(c2cccc(Br)c2)C(=O)Nc2ccccc21 (stereo unspecified),2874,-11
COc1ccc(OC)c(C2C/C(=N/O)C(C)C(c3cc(OC)ccc3OC)N2)c1 (stereo unspecified),3870,-7
O=C1Nc2ccccc2C1=Nc1ccccc1-c1ccccc1,3371,-53
Cc1noc(C)c1S(=O)(=O)Nc1ccc2c(c1)C(=O)N([C@H](C)CO)C[C@H](C)[C@@H](CN(C)S(=O)(=O)c1ccccc1)O2,3032,-16
COc1ccc(C2=Nc3ccccc3C2(O)CCN2C(=O)c3ccccc3C2=O)cc1 (stereo unspecified),2948,-5
COc1ccc(CNC(=O)COC(=O)C2=Cc3ccccc3OC2)cc1,3722,-2
CC1(C)O[C@@H]2C[C@H]3[C@@H]4C[C@H](F)C5=CC(=O)C=C[C@]5(C)[C@H]4[C@@H](O)C[C@]3(C)[C@]2(C(=O)CO)O1,4248,-40
CC(=C1SC(=S)NC1=O)c1ccccc1,4235,-3
CCN1C(=NCCc2ccccn2)N[C@@H](c2cccc(C(F)(F)F)c2)C(C(=O)OC)=C1C,3486,-24
O=c1/c(=C\c2cc([N+](=O)[O-])cc([N+](=O)[O-])c2O)sc2nc3ccccc3n12,4543,-15
COc1ccc(CCNC(=O)Cc2cc3c(cc2[N+](=O)[O-])OCO3)cc1OC,3523,-10
COCc1cccc(C2=CC(=O)C[C@H](c3ccc(F)cc3)C2)c1,2947,-18
COc1ccc2c(c1)N(C[C@H](C)CN(C)C)c1ccccc1S2,6238,-35
CCOC(=O)CN1C(=O)N[C@@H](c2ccccc2)C(C(C)=O)=C1C,4248,-26
CCC(C)CCN1C(N(C)C)=NC[C@@H]1Cc1ccccc1 (stereo partly specified),3100,-12
CCCCCC(O)CCCC(=O)O (stereo unspecified),5663,-15
